Mtb growth = Mycobacterium tuberculosis H37Rv growth inhibition, cell based, confirmatory dose response (AID 1949); most inactive calls were filed without a number and no value below 0 was filed; inhibition, % at 10 µg/mL; hits with a dose series show IC50 in µg/mL; actives 1.6% (n = 100,000);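 active = confirmed in a dose series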;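 note: bacteria grown 7 days with compound before Alamar blue readout; 0% = untreated bacteria and 100% = reference antibiotic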
* marks the source's active call; other numbers are inactive results; i = inactive.

entry | Compound | Mtb growth
1 | C=CCn1c(Oc2ccccc2)nc2c1c(=O)n(C)c(=O)n2C | i
2 | O=[N+]([O-])c1ccc(N2CCN(S(=O)(=O)c3ccc(Cl)cc3)CC2)cc1Sc1ccccn1 | i
3 | COc1ccc(NC(=O)CN2CCN(c3ccc(C)c(Cl)c3)CC2)cc1 | i
4 | CC(C)(C)c1[nH]nc2c1C(C1C=CCCC1)C(C#N)=C(N)O2 (stereo unspecified) | i
5 | O=C(CSc1ccccn1)Nc1ccc(Br)cc1Cl | i
6 | Cc1cc(=O)[nH]c(SCC(=O)NCCc2ccccc2)n1 | i
7 | COc1ccc(OCCNCc2ccco2)cc1 | i
8 | CCOC(=O)Cc1csc(NC(=O)c2cccs2)n1 | 4%
9 | O=C(O)CCN1C(=O)c2cccc3c([N+](=O)[O-])ccc(c23)C1=O | i
10 | CC1=C(C(=O)Nc2ccc(C)cc2C)C(c2ccc(C(C)C)cc2)NC(=O)N1 (stereo unspecified) | 2%
11 | COc1cc(/C=C/c2ccc3cccc(OC)c3n2)c(OC(C)=O)c([N+](=O)[O-])c1 | i
12 | O=C(NCCC12CC3CC(CC(C3)C1)C2)c1cccs1 | i
13 | COc1cccc(C(=O)COc2ccc3c(C)c(C)c(=O)oc3c2)c1 | i
14 | CN(C)c1ccc(CNC2C3CC4CC(C3)CC2C4)cc1 (stereo unspecified) | i
15 | CCc1cc2c(=O)c(-c3ccccc3Cl)c(C)oc2cc1OC(C)=O | 3%
16 | O=C(Nc1ccc2oc(-c3ccccc3F)nc2c1)c1ccccc1F | i
17 | O=C(Nc1ccc2c(c1)C(=O)NC2=O)c1ccccc1 | i
18 | CCCCC(=O)Nc1ccc(NC(=O)c2cccnc2)cc1OC | i
19 | COc1ccc(C)cc1S(=O)(=O)N1CCCC(C(=O)N2CCOCC2)C1 (stereo unspecified) | i
20 | COc1cc(NC(=S)NCCCN2CCOCC2)cc(OC)c1 | i
21 | O=C(Nc1ccon1)c1ccc(Br)o1 | i
22 | Cc1nc(NC(Cc2ccccc2)C(=O)O)c2nc(C)oc2n1 (stereo unspecified) | i
23 | C=C(C)COc1cc2c(C(=O)OCC)c(C)oc2cc1Br | i
24 | COc1ccc(COC(=O)C2=C(C)NC3=C(C(=O)CC(c4ccco4)C3)C2c2cccs2)cc1 (stereo unspecified) | i
25 | COc1cccc(C(=O)COc2cccc(NC(=O)c3ccc(Br)cc3)c2)c1 | i
26 | O=C(CCSc1ccc(Cl)cc1)Nc1cccc(F)c1 | i
27 | CC(=O)c1sc(NC(=O)c2ccc(Cl)c(Cl)c2)nc1C | i
28 | CC(C)CNC(=O)c1sc2cc(Cl)cc(Cl)c2c1Cl | i
29 | Cc1ccc(N(C)C(=O)n2cnc3ccccc32)cc1 | 4%
30 | CCOC(=O)C1CCN(C(=O)CN(c2cccc(C(F)(F)F)c2)S(=O)(=O)c2ccccc2)CC1 | i
31 | CC(C)C(NS(=O)(=O)c1cccc([N+](=O)[O-])c1)C(C)C | i
32 | CC(Sc1ccccc1)C(=O)Nc1cc(Cl)cc(Cl)c1 (stereo unspecified) | 43%
33 | Cc1onc(-c2ccccc2)c1C(=O)NC(C)C1CCCO1 (stereo unspecified) | i
34 | c1csc(Cn2c(-c3cccs3)nc3ccccc32)c1 | i
35 | COc1cccc(C2=CC(c3ccccc3OC)n3ncnc3N2)c1 (stereo unspecified) | 10%
36 | Oc1ccc(NCc2ccccc2OCc2ccc(Cl)cc2)cc1 | 1%
37 | CCCCNC(c1ccccc1)c1ccncc1 (stereo unspecified) | 9%
38 | C=CCC(CC=C)(NC(=O)c1ccccc1)c1ccccc1 | 4%
39 | C=CCn1c(SCc2ccccc2Br)nnc1-c1ccc([N+](=O)[O-])cc1 | i
40 | COc1ccc(SCc2n[nH]c(=S)n2-c2ccccc2)cc1 | i
41 | CSc1ccccc1NC(=S)NCc1ccco1 | i
42 | O=C(O)c1ccccc1NS(=O)(=O)c1ccc(F)c(Cl)c1 | i
43 | COc1cccc(C(=O)Nc2ccccc2C(=O)NC(C)c2ccccc2)c1 (stereo unspecified) | 6%
44 | CCOc1ccc(N(CC(=O)Nc2ccc(C(N)=O)cc2)S(=O)(=O)c2ccccc2)cc1 | i
45 | NC(=O)c1c(NC(=O)c2cccnc2)sc2c1CCCCCC2 | i
46 | COc1cc(COc2ccc3c(C)c(C)c(=O)oc3c2)cc(OC)c1OC | i
47 | NS(=O)(=O)c1ccc(CCNC(=O)c2ccc(Cl)cc2Cl)cc1 | 3%
48 | Cc1ccc(SCC(=O)NCCCc2ccccc2)cc1 | i
49 | Cc1ccc(NS(=O)(=O)c2cc(C(=O)N3CCCCCC3)ccc2C)c(C)c1 | i
50 | Cc1cc(C)c(OCCCCN2CCCC(C)C2)c(Br)c1 (stereo unspecified) | i
51 | CCN(CC)S(=O)(=O)c1ccc(NC(=O)COc2ccc(Br)c(C)c2)cc1 | 4%
52 | CCOc1ccccc1NC(=O)c1c(NC(=O)c2ccc(C)cc2)sc2c1CCC2 | i
53 | Cc1cc(C)c(OCC(=O)Nc2ccccc2OC(F)F)c(Br)c1 | i
54 | COc1ccc(CN(C)CCc2ccccn2)cc1 | 2%
55 | C=CCNC(=O)c1ccccc1C(=O)Nc1cccc2ccccc12 | i
56 | COc1cccc(NC(=O)CSc2nnc(CNC(=O)c3ccccc3)n2C)c1 | i
57 | COCCn1c(C)cc(C(=O)CSc2ncn[nH]2)c1C | i
58 | CS(=O)(=O)N(CC(=O)N1CCN(Cc2ccc3c(c2)OCO3)CC1)Cc1ccccc1 | i
59 | Cn1cccc1/C=C(/C#N)c1ccc(Cl)c(Cl)c1 | i
60 | O=C(CN1CCCCC1)Nc1ccc([N+](=O)[O-])cc1Br | i

Going on with the list.
entry | Compound | Mtb growth
61 | CCc1cccc(C)c1NC(=O)CCSc1ccc(C)cc1 | i
62 | C=CCNC(=O)CSc1nc(N)cc(=O)[nH]1 | 1%
63 | C=CCN1C(=O)CN(c2ccc(OCC)cc2)C1=S | 5%
64 | CC(C)CC(=O)N1CCC(N2CCCCCC2)CC1 | i
65 | O=C(c1ccc(NC(=S)Nc2ccc(Br)cc2Cl)cc1)N1CCCC1 | i
66 | CCOc1ccc(NC(=O)CSc2nnc(-c3ccc(OC)cc3)n2-c2ccc(Cl)cc2)cc1 | i
67 | Cc1ccnc(SCC(=O)Nc2cccc3ccccc23)n1 | i
68 | COc1ccc(CCNC(=S)N2CCCC2)cc1OC | i
69 | COc1ccccc1C/C(N)=N/OC(=O)COc1ccc2ccccc2c1 | 5%
70 | FC(F)(F)c1cccc(Cn2cnc(NC(=S)NCCc3ccccc3)n2)c1 | 0%
71 | Cc1ccc(N(Cc2ccccc2)C(=O)c2cccc([N+](=O)[O-])c2)cc1 | i
72 | C=CCN(CC=C)CC(=O)Nc1sc2c(c1C(=O)OCC)CCC(C)C2 (stereo unspecified) | 6%
73 | CC(C(=O)N1c2ccccc2C(C)(c2ccc(Cl)cc2)CC1(C)C)N1C(=O)c2ccccc2C1=O (stereo unspecified) | 5%
74 | C=CCn1c(-c2cccc(OC)c2)nc(=S)c2c1CCCC2 | 0%
75 | CCSc1ccccc1C(=O)N1CCN(c2cccc(Cl)c2)CC1 | i
76 | CCOC(=O)c1c(NC(=O)c2ccccc2NC(C)=O)sc2c1CCCC2 | 2%
77 | CN(CC(=O)Nc1ccccc1-c1ccccc1)S(=O)(=O)c1ccc2ccccc2c1 | 22%
78 | Cc1cccc(-c2nn3c(Cc4ccccc4)nnc3s2)c1 | 1%
79 | COc1ccc(C)cc1NC(=S)NNC(=O)c1ccccc1Cl | i
80 | Cc1ccc(C(=O)Nc2ccc(NC(=O)c3ccccc3[N+](=O)[O-])cc2)cc1 | i
81 | CCOc1ccc(C(=O)Nc2cccc(-c3nc4cc(C)c(C)cc4o3)c2C)cc1[N+](=O)[O-] | i
82 | CN(C)CCOCCOc1ccc(Cl)c2ccccc12 | 11%
83 | COc1ccc(N(CC(=O)Nc2cccc(N(C)S(C)(=O)=O)c2)S(=O)(=O)c2ccc(F)cc2)cc1 | 0%
84 | Cc1ccc2oc(-c3ccc(NC(=O)Cn4c(=O)oc5ccccc54)cc3)nc2c1 | 0%
85 | COC(=O)c1ccc(Cl)c(NC(=O)CN(c2ccc(Oc3ccccc3)cc2)S(C)(=O)=O)c1 | i
86 | COc1c(Cl)cc(Cl)cc1C(=O)Nc1ccccc1N1CCOCC1 | i
87 | COc1ccc(OC)c(S(=O)(=O)Nc2ccccc2C(=O)O)c1 | 5%
88 | CSCC(=O)Nc1ccc(C)c(C)c1 | i
89 | COC(=O)C1Cc2c([nH]c3ccccc23)CN1 (stereo unspecified) | i
90 | Cc1cc(=O)oc2c(C)c(OCC(=O)OCc3ccccc3)ccc12 | 2.1µg/mL*

A second format for part of the listing above:
#80 Cc1ccc(C(=O)Nc2ccc(NC(=O)c3ccccc3[N+](=O)[O-])cc2)cc1
  Mtb growth: i

#81 CCOc1ccc(C(=O)Nc2cccc(-c3nc4cc(C)c(C)cc4o3)c2C)cc1[N+](=O)[O-]
  Mtb growth: i

#82 CN(C)CCOCCOc1ccc(Cl)c2ccccc12
  Mtb growth: 11%

Screen by screen, quoted from above:
Compounds 82 to 89 in Mtb growth read 11%, 0%, 0%, i, i, 5%, i, i

Remaining list, next part
entry | Compound | Mtb growth
91 | O=C(Nc1ccccc1Br)C1CCN(C(=O)Cc2ccccc2)CC1 | i
92 | CCCc1cc(=O)[nH]c(SCC(=O)Nc2ccc(Cl)cc2)n1 | i
93 | CC1(C)Nc2ccccc2N(CC(=O)N2CCCCC2)C1=O | i
94 | OC(COCc1ccc(Cl)cc1)CN1CCN(Cc2ccc3c(c2)OCO3)CC1 (stereo unspecified) | i
95 | C=CCSc1nc(N2CCOCC2)c2c(c1C#N)CCCC2 | 28%
96 | CCc1cccc(OCCOCCN2CC(C)OC(C)C2)c1 (stereo unspecified) | i
97 | CC(=O)c1cc2c(cc1NC(=O)C(F)(F)Cl)OCO2 | i
98 | COc1cc2c(cc1OC)C(c1ccc(C)s1)CC(=O)N2 (stereo unspecified) | i
99 | COc1ccc(NC(=O)c2ccccc2F)c(OC)c1 | 42%
100 | COc1ccc(N(C(=O)COc2ccc(Br)cc2)C2C=CS(=O)(=O)C2)cc1 (stereo unspecified) | i
101 | O=C(NCCN1CCN(C(=O)c2cccs2)CC1)c1cccs1 | i
102 | CN(C)C(=O)c1ccc(-c2n[nH]c(=O)c3ccccc23)cc1 | i
103 | CCOC(=O)CN(c1cc(C)cc(C)c1)S(=O)(=O)c1ccccc1 | i
104 | COc1ccc(NC(=O)CN(c2cccc(C)c2C)S(=O)(=O)c2ccc(C)cc2)cc1OC | i
105 | Cc1ccc(N2C(=O)CC(NC3CC3)C2=O)cc1 (stereo unspecified) | i
106 | CCOc1cc(C2C3=C(CC(C)(C)CC3=O)Nc3nc4ccccc4n32)ccc1O (stereo unspecified) | i
107 | O=C1OC(C(=O)Nc2cccc(Br)c2)Cc2ccccc21 (stereo unspecified) | i
108 | CCc1ccc(-c2csc3ncn(C)c(=O)c23)cc1 | i
109 | O=c1cc2oc3cc(O)c(O)cc3c(-c3cccc(OCc4ccc([N+](=O)[O-])cc4)c3)c-2cc1O | 0%
110 | COc1ccc(OC)c(S(=O)(=O)N2CCC(C(=O)N3CCC(Cc4ccccc4)CC3)CC2)c1 | 3%
111 | C=CCNc1nnc(C23CC4CC(CC(C4)C2)C3)s1 | 2%
112 | Cc1ccc(SCCNC(=S)NC2CCCC2)cc1 | i
113 | CCOc1ccc(C(=O)NC(=S)Nc2cccc(C(=O)O)c2C)cc1Br | i
114 | FC(F)(F)c1cccc(-n2nnc(-c3ccccc3)n2)c1 | 9%
115 | O=C(Nc1ccc(Cl)c(Cl)c1)C1CCN(C(=O)c2ccc(Cl)cc2Cl)CC1 | 44%
116 | COC(=O)CCN(C(=O)c1ccc(C)cc1)c1ccccn1 | i
117 | C=CCOn1c(=O)c(-c2ccc(F)cc2)[n+]([O-])c2ccccc21 | i
118 | O=C(c1ccc(-c2ccccc2)cc1)N1CCC(N2CCN(c3ccccc3)CC2)CC1 | 6%
119 | COc1ccc(-c2nc(=S)c3c(n2CCN2CCOCC2)CC(C)(C)OC3)cc1 | i
120 | Cc1ccc(C(=O)Nc2cccc3ccccc23)cc1Br | 27%
121 | COc1ccc(S(=O)(=O)Nc2ccc(S(=O)(=O)Nc3ccc(C)c(Cl)c3)cc2)cc1 | i
122 | Cc1cc(Cl)ccc1OCC(=O)Nc1ccccc1-c1nc2ccccc2s1 | 0%
123 | CC1CN(C2CCN(Cc3ccccn3)CC2)CC(C)O1 (stereo unspecified) | i
124 | Cc1ccc(C)c(OCC(=O)Nc2c[nH]c(=O)[nH]c2=O)c1 | i
125 | CCSc1ccccc1C(=O)N1CCN(Cc2ccc3c(c2)OCO3)CC1 | i
126 | Cc1ccc(S(=O)(=O)N(CC(=O)NCC2CCCO2)Cc2ccc(Br)cc2)cc1 (stereo unspecified) | 2%
127 | O=C(CCSc1ccc(Cl)cc1)N1CCN(c2ccccc2)CC1 | i
128 | COc1cc(NC(=S)N2CCN(c3ccc(F)cc3)CC2)c(OC)cc1Cl | i
129 | COc1ccc(-c2cc3c(C)cccn3c2C)cc1OC | i
130 | COc1cccc(Oc2nc(N)[nH]c(=O)c2I)c1 | 3%
131 | NC(=O)c1c(NC(=S)NC(=O)c2ccco2)sc2c1CCCC2 | i
132 | CCc1cccc(CC)c1NC(=O)c1c(-c2ccccc2Cl)noc1C | i
133 | COc1cccc(CN2CCN(C(=S)NCC3CCCO3)CC2)c1 (stereo unspecified) | i
134 | CCOC(=O)C(=O)Nc1ccc(F)c(F)c1 | i
135 | CC(Oc1ccc(Br)cc1)C(=O)N1CCCc2ccccc21 (stereo unspecified) | 16%
136 | Cc1cc(C(=O)O)sc1-c1ccccc1 | 5%
137 | Fc1c(F)c(F)c(/C=C/CN2CCOCC2)c(F)c1F | i
138 | Cc1cc(OCCCCNCCO)ccc1C(C)C | i
139 | Cc1ccc(OCCCCNCCc2ccccc2)c(C)c1 | 9.1µg/mL*

Arranged by formula weight (rising): part of the list above
entry | Compound | Mtb growth
134 | CCOC(=O)C(=O)Nc1ccc(F)c(F)c1 | i
138 | Cc1cc(OCCCCNCCO)ccc1C(C)C | i
135 | CC(Oc1ccc(Br)cc1)C(=O)N1CCCc2ccccc21 (stereo unspecified) | 16%

Not all compounds are listed; the hit share may differ from the screen's.
